Assay outcomes: PubChem, National Center for Advancing Translational Sciences (NCATS)
miR-21 FLuc – raises the signal of a miR-21 reporter | Potency, µM (series often up to 38.3 µM), for inactives: top-dose reporter change, positive = more light | HeLa miR-21 FLuc reporter, luciferase, 48 h | 340,000 tested, under 10 active; active = well fitted rising curve with a large enough effect; inconclusive = small, poorly fitted or top-dose-only effect; inactive = no such curve, though single readings can be large or run the other way;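 also: % of control where 0% means no effect; miR-21 action dims this reporter so a rising signal means less miR-21 action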
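HeLa miR-21-FLuc reporter line, endogenous miR-21; 2000 cells/well in DMEM/10% FBS; compound titration up to ~40uM final, 48 h, 37 degree Celsius; luciferase detection reagent, 15 min lysis, CCD luminescence.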
GLA inh pH 4.5 – blocks human alpha-galactosidase A at pH 4.5. P06280. purified enzyme, 4-MU-alpha-Gal fluorescence, pH 4.5. activity change, negative = inhibition, % at 105 µM. 230,000 tested, under 10 active; inconclusive = small, poorly fitted or top-dose-only inhibition, or a rising curve; inactive = flat fitted curve, though single readings scatter; no compound was filed as active;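 also: 0% = full activity with enzyme and -100% = basal without enzyme; dose as in the result columns while the protocol names 77 µM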
Rango release inh – inhibition of RanGTP-driven Rango-importin beta dissociation; O95149+P62826; Biochemical FRET Rango-importin beta, RanGTP-induced dissociation; Potency, µM (doses to about 46.1 µM), without a hit: at the top dose activity change, negative = inhibition; 0.071% of 340,000 active; active means falling FRET ratio curve, often poorly fitted, with flat reads before Ran was added; inconclusive means other falling curves, or compound fluorescence or quenching; inactive means flat or rising ratio curve;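 also: potency is read from the fitted curve at half-maximal effect; % of control where 0% means no effect; nearly all actives have a fitted effect of over 45% in size; -100% = wells without RanGTP and RCC1; the record marks most hits as doubtful in a second field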
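Compounds preincubate 5 min with complex of recombinant Rango and importin beta in PBS with 1 mM DTT. Ran (0.6 uM) loaded with 2 mM GTP plus 0.2 uM RCC1 starts dissociation; FRET is recorded 45 min later.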
Rango-impB inh – prevents formation of the Rango-importin beta complex | Q14974 | Rango CFP/YFP FRET sensor + importin beta, 45 min | Potency, µM (highest dose often 92.2 µM), for the others: at the top dose inhibition of complex formation | 0.031% of 340,000 active; active = rising FRET ratio curve, often small or poorly fitted; inconclusive = mostly compound fluorescence or quenching in the first reads; inactive = flat curves in all reads;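 also: potency is read from the fitted curve at half-maximal effect; 0% = DMSO wells and 100% = buffer wells lacking importin beta; nearly all actives have a fitted effect of over 15% in size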
Target sequence (Q14974 whole entry, looked up): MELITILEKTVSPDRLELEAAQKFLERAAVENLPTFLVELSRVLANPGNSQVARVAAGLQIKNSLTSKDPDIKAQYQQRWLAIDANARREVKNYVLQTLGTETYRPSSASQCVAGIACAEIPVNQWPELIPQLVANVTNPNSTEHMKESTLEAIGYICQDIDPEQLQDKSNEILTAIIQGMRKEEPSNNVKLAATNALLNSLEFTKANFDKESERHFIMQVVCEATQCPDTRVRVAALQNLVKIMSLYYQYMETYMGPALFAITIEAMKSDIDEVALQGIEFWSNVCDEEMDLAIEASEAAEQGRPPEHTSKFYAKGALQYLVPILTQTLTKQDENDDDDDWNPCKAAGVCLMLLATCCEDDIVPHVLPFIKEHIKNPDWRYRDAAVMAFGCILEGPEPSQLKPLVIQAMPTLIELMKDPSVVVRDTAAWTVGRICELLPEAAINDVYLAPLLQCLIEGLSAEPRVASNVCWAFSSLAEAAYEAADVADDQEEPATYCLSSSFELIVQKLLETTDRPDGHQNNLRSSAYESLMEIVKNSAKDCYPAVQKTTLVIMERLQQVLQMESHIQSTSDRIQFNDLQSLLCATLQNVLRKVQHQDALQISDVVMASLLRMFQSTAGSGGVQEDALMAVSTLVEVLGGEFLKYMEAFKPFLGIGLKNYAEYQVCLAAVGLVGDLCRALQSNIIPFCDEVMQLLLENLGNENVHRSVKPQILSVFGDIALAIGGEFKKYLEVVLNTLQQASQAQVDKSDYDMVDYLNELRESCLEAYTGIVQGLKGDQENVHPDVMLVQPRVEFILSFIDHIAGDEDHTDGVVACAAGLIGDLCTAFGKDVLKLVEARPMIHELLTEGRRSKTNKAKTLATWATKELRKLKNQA
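Inhibition scored from the CFP 486 nm/YFP 530 nm FRET ratio 45 min after adding 0.125 microM importin beta to 50 nM Rango biosensor preincubated 5 min with compound (room temperature, PBS with DTT, Tween-20, BSA). No-importin wells as positive control.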
* marks the source's active call; other numbers are inactive results; ? = inconclusive; nt = no result given; & = joins results of further samples; [ ] = dose if it differs, or a comment.

miR-21 FLuc | GLA inh pH 4.5 | Rango release inh | smiles | Rango-impB inh
5%[7.66 µM] | -10 | ? | Cc1c(C(=O)N2CCCC2)sc(NC(=O)c2ccco2)c1C#N | ?
-4% | -4 | ? | Cc1ccc(CC(CC(=O)Nc2cccc(C(F)(F)F)c2)C(=O)O)cc1 (stereo not given) | ?
0% | 7 | 0% | C=CCNC(=O)NC(=O)COC(=O)c1cccnc1SC | -0.1%
2% | nt | 21% | Cc1c([N+](=O)[O-])cc(C(=O)Nc2ccc(NC(=O)c3ccco3)cc2)cc1[N+](=O)[O-] | 1.3%
nt | nt | -3% | C#CCOCCOCCOCCNc1nc(N2CCN(C(=O)CCCCCCCCCCNC(=O)[C@H]([C@@H](C)CC)n3cc(CCCCN=C(N)N)nn3)CC2)nc(N2CCN(C(=O)CCCCCCCCCCNC(=O)[C@@H]([C@H](C)O)n3cc(C)nn3)CC2)n1 | 11%
-26% | -3 | 1% | Cc1ccc(C2=Nc3ccccc3N=C(c3ccc([N+](=O)[O-])cc3)C2)c(O)c1 | -1.9%
-14% | -3 | 0% | O=C(NCc1ccc2c(c1)OCO2)C12CC3CC(CC(C3)C1)C2 | -0.5%
nt | nt | -5% | CC(C)(C)N(Cc1ccccc1)C(=O)COC(=O)C1CC(=O)N(Cc2ccccc2)C1 (stereo not given) | ?
0% | nt | -9% | COc1ccccc1N(CC(=O)NC1CCCCC1)C(=O)CCC(=O)Nc1nccs1 | -5.5%
0% | -3 | -13% | CCOC(=O)C(C)Sc1cc(CS(=O)(=O)c2ccccc2)nc(-c2ccccc2)n1 (stereo not given) | 0.1%
-2% | 3 | 0% | O=S(=O)(C=C(c1ccccc1)c1ccccc1)c1ccccc1 | -0.4%
-21% | -15 | 4% | N#CCCN(C(=O)COC(=O)c1cccc(S(=O)(=O)Nc2ccc([N+](=O)[O-])cc2)c1)c1ccccc1 | 4.6%

Next part (5 carried over from the part before).
miR-21 FLuc | GLA inh pH 4.5 | Rango release inh | smiles | Rango-impB inh
nt | nt | -5% | CC(C)(C)N(Cc1ccccc1)C(=O)COC(=O)C1CC(=O)N(Cc2ccccc2)C1 (stereo not given) | ?
0% | nt | -9% | COc1ccccc1N(CC(=O)NC1CCCCC1)C(=O)CCC(=O)Nc1nccs1 | -5.5%
0% | -3 | -13% | CCOC(=O)C(C)Sc1cc(CS(=O)(=O)c2ccccc2)nc(-c2ccccc2)n1 (stereo not given) | 0.1%
-2% | 3 | 0% | O=S(=O)(C=C(c1ccccc1)c1ccccc1)c1ccccc1 | -0.4%
-21% | -15 | 4% | N#CCCN(C(=O)COC(=O)c1cccc(S(=O)(=O)Nc2ccc([N+](=O)[O-])cc2)c1)c1ccccc1 | 4.6%
-5% | -3 | -7% | CCCCCCCN1C/C=C\C(c2ccc(OC)cc2)N(Cc2ccc(F)cc2)C(=O)[C@H]1Cc1ccccc1 (stereo not given in full) | 2.1%
-2% | -1 | 14% | CCOc1cc(CO)cc(Br)c1OCC(=O)Nc1ccccc1C | -2.8%
-3% | -12 | 14% | Cc1cc(NC(=O)NC(C)(C(F)(F)F)C(F)(F)F)no1 | ?
11% | 3 | 9% | Cc1ccc(C)c(-c2csc(N)c2C(=O)OC(C)C)c1 | -2.1%
16% | 13 | -14% | O=C(COC(=O)c1ccccc1Cl)NC(=O)NCc1ccccc1 | 0.0%
0% | 2 | -6% | O=C(O)c1ccc2cccc(Cl)c2c1O | 0.1%
nt | nt | 2% | CSCCC(NC(=O)c1ccccc1)C(=O)Nc1ccncc1 (stereo not given) | -2.8%
-14% | -1 | -4% | CCN(CC)C(=O)Oc1ccc(Cl)c2ccccc12 | -2.0%
2% | nt | -9% | CCCn1c(SCC(=O)N2CCCCC2)nc2c1c(=O)n(C)c(=O)n2C | -0.2%
-1% | 1 | -10% | Cc1cc(=O)oc(C)c1C(=O)NCC(C)C | -0.1%
10% | nt | -11% | CCOCCCn1c(SCC(=O)N2CCOCC2)nc2ccccc2c1=O | 0.0%
-23% | 0 | -14% | Cc1cc(Oc2ccccc2)nc(N2CCOCC2)n1 | 0.0%
-17%&-12% | 2 | -5% | CC(=O)c1ccc(N2CCN(C(=O)Nc3cccc(F)c3)CC2)cc1 | ?
0% | 1 | -19% | Cn1c(=O)[nH]c(=O)c2c1nc(CN1CCN(c3ccc(F)cc3)CC1)n2CCN1CCOCC1 | -1.1%
1% | -3 | -8% | CCCCn1c(SCC(=O)Nc2nnc(C(C)C)s2)nc2c1c(=O)n(C)c(=O)n2C | 0.9%
nt | nt | 16% | CCOc1ccc(CCNC(=O)COC(=O)c2nn(C)c(=O)c3ccccc23)cc1OCC | -0.6%
-2% | 1 | 6% | COc1ccc(S(=O)(=O)Nc2ccc(NC(C)=O)cc2)cc1Cl | 0.1%
-3% | nt | 0% | O=c1cnn(Cc2ccc(F)cc2)c2ccccc12 | 2.1%
6% | -8 | -14% | Cc1c(C(C)C)c(=O)n(-c2ccc(S(=O)(=O)NC(C)C)cc2)n1C | 3.9%
0% | 1 | -12% | COc1ccc(C(=O)NCC(=O)OCC(=O)N2CCCc3ccccc32)cc1 | -0.1%
-5% | 2 | -6% | Cc1cc(NS(=O)(=O)c2ccc(NC(=S)NC(=O)c3cccc(S(=O)(=O)N(C)C)c3)cc2)no1 | -2.2%
-10% | -18 | 34% | COc1ccc(-c2noc(C(=O)NCc3ccc(F)cc3)n2)cc1OC | -0.4%
-40% | nt | 2% | CN1CCN(c2nc(-c3ccc(C(C)(C)C)cc3)nc3ccccc23)CC1 | -0.7%
-26% | 0 | -3% | c1ccc(-c2nn3c(Cn4nnc5ccccc54)nnc3s2)cc1 | -3.9%
2% | nt | -11% | O=C(NCCNc1ccc([N+](=O)[O-])cc1)c1cccs1 | -2.9%
-51% | 7 | -9% | O=c1c2ccccc2nnn1COc1ccc(F)cc1Cl | 4.2%
-1% | 7 | -8% | O=C(NC1CCCC1)c1ncn[nH]1 | -0.6%
11% | -5 | 2% | CCOC(=O)c1cccc(NC(=O)COc2ccc([N+](=O)[O-])cc2)c1 | 1.0%
-2% | -5 | -7% | O=C1c2ccccc2C(=O)N1CC1c2ccccc2CCN1C(=O)C1CCCCC1 (stereo not given) | ?
0% | -15 | -21% | COc1ccc(/C=N/NC(=O)c2cccc([N+](=O)[O-])c2)cc1OS(=O)(=O)c1ccccc1 | -0.6%
-1% | 3 | 0% | Cc1c(C#N)c2ccccc2n1CC(=O)N1CCCc2ccccc21 | -4.4%
4% | -12 | 2% | Cn1nnnc1SCC(=O)Nc1cc(C(C)(C)C)nn1-c1ccccc1 | 2.4%
0% | -7 | 0% | Cc1cc(OC(=O)c2ccc(S(=O)(=O)N(C)C)cc2)cc(=O)o1 | -3.9%
-36% | -1 | -22% | O=C(Nc1nc2ccc(Cl)cc2s1)C1CCCO1 (stereo not given) | -6.9%
1% | 1 | -2% | CCCCN(C(=N)N1CCCCC1)c1nc(C)c([N+](=O)[O-])c(=O)[nH]1 | 3.3%
0% | -5 | -14% | N#Cc1c(NC(=O)CSc2ncnc3c2cnn3-c2ccccc2Cl)sc2c1CCCC2 | -2.1%
-17% | -7 | 2% | COc1ccc2c(=O)cc(-c3ccccc3)n(C)c2c1 | -1.6%
-1% | -3 | 18% | CCOC(=O)N1CCN(C(=O)C2CCN(Cc3ccc(O)c(OCC)c3)CC2)CC1 | -2.9%
-7% | nt | 3% | Cc1ccccc1CN(C)C(C)C(=O)NCc1ccccc1 (stereo not given) | 2.2%
0% | 5 | -15% | O=C(O)C1=C[C@H](c2ccc(F)cc2)C[C@H](OCc2ccc(CO)cc2)O1 | 3.8%
nt | nt | -25% | Cc1ccn2c(=O)nc(SCC(=O)NCc3ccc(F)cc3)nc2c1 | ?
-1% | 4 | -13% | Cc1ccc(C)n1Cc1ccc(C(=O)O)cc1 | ?
-15% | -1 | 15% | COc1ccc(-c2n[nH]c(=S)o2)c(OC)c1 | 5.5%
5% | nt | 11% | COc1ccc(N(CC(=O)N2CCN(Cc3ccccc3)CC2)S(C)(=O)=O)cc1Cl | 2.8%
-45% | -4 | -3% | Cc1ccc(NC(=O)c2cncc(Br)c2)cc1S(=O)(=O)N(C)C | -0.1%
1% | 4 | -6% | C/C(=N\Nc1ccc(C(F)(F)F)cc1[N+](=O)[O-])C1CC1 | -1.8%
16% | nt | -17% | CC(=O)O[C@H]1C(=O)[C@@]2(C)C([C@H](OC(=O)c3ccccc3)[C@]3(O)C[C@H](OC(=O)[C@H](O)[C@@H](NC(=O)c4ccccc4)c4ccccc4)C(C)=C1C3(C)C)[C@]1(OC(C)=O)CO[C@@H]1C[C@H]2O (stereo not given in full) | 0.4%
-2% | 1 | -18% | CC1CCC/C(=N\NS(=O)(=O)c2ccccc2)C1 (stereo not given) | -0.6%
2% | 8 | -3% | CCC1=NN(C(=O)COc2ccccc2)C(O)(c2ccc(Br)cc2)C1 (stereo not given) | 2.6%
-9% | -3 | -9% | COc1cc([N+](=O)[O-])ccc1NC(=O)Cc1ccc(C)cc1 | 1.5%
3% | -1 | 4% | CN(Cc1ccccc1)C(=S)NC(=O)c1ccccc1 | 0.3%
-2% | nt | 4% | COc1ccc(Cl)cc1/C=C1/C(=O)ON=C1C | -4.2%
-40% | -4 | 0% | Cn1c(=NC(=O)c2ccco2)sc2cccc(F)c21 | 2.1%
nt | nt | 5% | CC(=O)Nc1sc(C)c(C)c1C(=O)OCC(=O)NCc1ccccc1 | -0.3%
-10% | -2 | 6% | CCCN(CCC)CCCNC(=O)CCNS(=O)(=O)c1ccc(Br)cc1 | -2.1%
nt | nt | 4% | CC(C)Oc1ccc(S(=O)(=O)N2CCOCC2)cc1NC(=O)C1=COCCO1 | -0.3%
nt | nt | -6% | CCOC(=O)C1=C(COC(=O)c2ccccc2[N+](=O)[O-])NC(=O)NC1C (stereo not given) | -1.7%
nt | nt | 7% | CCOc1ccc(S(=O)(=O)N2CCCCC2)cc1NC(=O)C1CCC1 | 1.8%
-1% | -6 | ? | Cc1cc(O)c(C(C[N+](=O)[O-])c2ccc(Cl)cc2)c(=O)o1 (stereo not given) | -2.8%
nt | nt | -8% | COc1cc(/C=C/C(=O)OCC(=O)N(C)Cc2ccccc2)cc(OC)c1OC | -1.6%

Following part:
miR-21 FLuc | GLA inh pH 4.5 | Rango release inh | smiles | Rango-impB inh
-1% | -15 | 27% | O=C(COC(=O)Cc1ccsc1)NC(c1ccccc1)c1ccccc1 | -2.8%
nt | nt | 15% | Cc1ccc(NC(=O)COC(=O)c2ccc(OC(F)F)cc2)cc1S(=O)(=O)N1CCCCC1 | -0.1%
-56% | nt | -7% | Nc1nc2ccccc2cc1-c1cccs1 | 5.4%
7% | 6 | 2% | C=CCN(c1ccccc1Cl)S(=O)(=O)c1cccc(C(=O)OCC(=O)N(C)C2CCS(=O)(=O)C2)c1 (stereo not given) | 2.7%
-3% | -6 | -6% | Cc1ccc[n+](C(C)C(=O)Nc2ccc([N+](=O)[O-])cc2C)c1 (stereo not given) | 1.6%
-2% | nt | -15% | O=C(Nc1ccccc1NC(=O)c1ccc(F)cc1)c1ccc(F)cc1 | -1.4%
-8% | -2 | 1.3µM* | CCOc1cccc2cc(-c3nnc(NCc4ccc5c(c4)OCO5)s3)c(=O)oc12 | ?
-8% | -3 | -4% | Cc1cccc(N2CCN(c3nc4nonc4nc3N3CCSCC3)CC2)n1 | -0.8%
2% | 2 | 1% | COc1cc(/C=N/NC(=O)Cn2ccc(C(F)(F)F)n2)cc(OC)c1OC | -3.4%
nt | nt | -14% | O=C(COC(=O)/C=C/c1ccc(Cl)c(Cl)c1)NC1CCS(=O)(=O)C1 (stereo not given) | 3.7%
-9% | nt | -1% | CCC1CCCCN1Cc1c(O)ccc2c(=O)c(-c3ccccc3)coc12 (stereo not given) | 0.1%
-1% | 5[21.1 µM] | ? | O=C1C2CC=CCC2C(=O)N1c1ccc(N2CCN(c3ccccn3)CC2)c([N+](=O)[O-])c1 (stereo not given) | -1.1%
-2% | 2 | 1% | Cc1ccccc1NC(=O)COC(=O)CCc1ccccc1 | 1.4%
-2% | 2 | 23% | CCCCn1c(SCC(=O)Nc2nnc(C)s2)nnc1-c1ccoc1C | -0.7%

The list is partial (hit frequency here may not be typical).
